# D2 agonist: Beta-Arrestin HTS for Positive Allosteric Modulators of the Human D2 Dopamine Receptor: Agonists; D(2) dopamine receptor (Homo sapiens), P14416; DiscoveRx PathHunter D2 beta-arrestin, luminescence, 90 min; 100% = 57 uM dopamine signal; activation, % (no concentration beside the values); 0.084% of 360,000 active; AID 624465, 2012; in the data active = activation above about 40%; inconclusive = about 15% to 40%; inactive = below about 15%; note: compound concentration not given in the record; the text of the record calls up to 30% inactive
# Target sequence (P14416 whole entry, looked up): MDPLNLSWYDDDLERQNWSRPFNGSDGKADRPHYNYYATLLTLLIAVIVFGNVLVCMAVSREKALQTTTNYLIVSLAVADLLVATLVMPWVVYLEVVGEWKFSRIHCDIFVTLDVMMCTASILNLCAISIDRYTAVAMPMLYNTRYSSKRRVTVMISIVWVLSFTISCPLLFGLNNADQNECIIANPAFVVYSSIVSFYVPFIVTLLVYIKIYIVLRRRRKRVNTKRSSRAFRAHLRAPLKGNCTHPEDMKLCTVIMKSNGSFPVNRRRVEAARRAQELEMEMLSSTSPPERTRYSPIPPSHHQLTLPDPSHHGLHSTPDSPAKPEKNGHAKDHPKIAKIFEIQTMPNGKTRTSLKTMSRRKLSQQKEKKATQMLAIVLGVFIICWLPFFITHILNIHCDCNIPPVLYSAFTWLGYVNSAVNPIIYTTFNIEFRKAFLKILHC
#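 Agonist mode: compounds alone added to overnight-plated D2 PathHunter cells for 90 min at 37 C, with 57 uM final dopamine (EC100) defining full response. Beta-arrestin recruitment detected by chemiluminescent reagent, read after 1 h at ambient temperature.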
# gsp agonist: qHTS for Agonist of gsp, the Etiologic Mutation Responsible for Fibrous Dysplasia/McCune-Albright Syndrome: qHTS; Potency, µM (top dose mostly 76.9 µM), for inactives: at the top dose activation (cAMP increase), hits mostly activators; gsp mutant cells, cAMP HTRF, 30 min; control for the full effect not named in the record; 0.13% of 340,000 active; active = well fitted activation curve with a large enough effect; inconclusive = small, poorly fitted or top-dose-only effect, or another doubt; inactive = no such curve, though single readings can be large or run the other way; cell line not stated here;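 note: phosphodiesterase inhibitor Ro 20-1724 added with compounds to block cAMP breakdown; potency is the fitted concentration of half-maximal effect; nearly all actives have a fitted effect of over 60% in size; about a fifth of the inactives were tested at one dose only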
#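 Cells in DMEM/10% FBS with G418 were pretreated with compounds in DMSO plus […] (300 uM stock) for 30 min at 37C. cAMP was measured by HTRF (cAMP-d2 plus anti-cAMP antibody-K) after 30 min at room temperature.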
# Six1-Eya2 inh: qHTS Assay for Inhibitors of the Six1/Eya2 Interaction. Homeobox protein SIX1 (Homo sapiens) + Protein phosphatase EYA2 (Homo sapiens), …. 0.56% of 360,000 active. activity change, % (no concentration beside the values). AlphaScreen GST-Six1/His-Eya2 binding, biochemical; stronger effect = lower value; control for the full effect not named in the record; in the data active = activity change below about -65%; inconclusive = about -30% to -65%; inactive = above about -30%; note: % is set by controls: 0 for no effect and ±100 for the full control effect; compound concentration not given in the record
#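 GST-Six1 + His-Eya2 (5X stock: 250/500 nM); Tris pH 8.0, 300 mM NaCl, 0.05% BSA, 0.02% Tween 20; GSH donor/Ni acceptor beads; 1 h 37 °C dark; AlphaScreen readout.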
# CtBP-E1A inh: qHTS Assay for Inhibitors of the CtBP/E1A Interaction; CtBP / adenovirus E1A interaction (AlphaScreen); AlphaScreen GST-E1A/His-CtBP binding, 1536-well; stronger effect = lower value; control for the full effect not named in the record; activity change, % (no concentration beside the values); 0.49% of 340,000 active; AID 651724, 2012; in the data active means activity change below about -65%; inconclusive means about -30% to -65%; inactive means above about -30%; note: % is set by controls: 0 for no effect and ±100 for the full control effect; compound concentration not given in the record
#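 Protein mix (5X: 125 nM each GST-E1A, His-CtBP) was incubated with pinned compound 2 h at 37 deg C in dark, in 50 mM Tris pH 8.0 buffer with 300 mM NaCl. Glutathione donor and nickel acceptor beads followed; AlphaScreen signal read after 1 h.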
# gsp antagonist: qHTS for Antagonists of gsp, the Etiologic Mutation Responsible for Fibrous Dysplasia/McCune-Albright Syndrome: qHTS; 0.4% of 340,000 active; gsp-mutant cells, cAMP HTRF, 30 min; control for the full effect not named in the record; Potency, µM (titrated, usually from 76.9 µM), for the others: top-dose activity change, negative = inhibition, hits mostly inhibitors; AID 624288, 2012; active = falling curve of any shape with a large fitted effect; inconclusive = falling curve, mostly with a smaller effect; inactive = flat or rising curve; cell line not stated here;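 note: intracellular cAMP measured with PDE inhibitor Ro 20-1724 present during compound exposure; potency is the fitted concentration of half-maximal effect; % is set by controls: 0 for no effect and ±100 for the full control effect; nearly all actives have a fitted effect of over 65% in size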
#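 Cells in G418 medium, seeded 16-24 h, 37C; buffer exchange to DPBS + 1 mM CaCl2, 0.5 mM MgCl2, 0.05% BSA; cpds in DMSO + […] (300 uM stock), 30 min 37C; HTRF cAMP detection.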
# D2 PAM: Beta-Arrestin HTS for Positive Allosteric Modulators of the Human D2 Dopamine Receptor: Potentiators | D(2) dopamine receptor (Homo sapiens), P14416 | DiscoveRx D2 beta-arrestin cells, luminescence, 90 min; 100% = 57 uM dopamine signal | potentiation, % (no concentration beside the values) | 0.23% of 360,000 active | AID 624464, 2012; active = potentiation of 50% or more; inconclusive = 30% to 50%; inactive = 30% or less;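 note: compound concentration not given in the record; tested on top of an EC20 dose of dopamine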
#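 D2 cells co-treated with compound plus 50 nM dopamine (EC20) for 90 min at 37 deg C to detect potentiation. Beta-arrestin recruitment was read as enzyme-fragment luminescence after 1 h at ambient temperature. Full response was set by 57 uM dopamine.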
# Starred values were filed as active, the others as inactive; ? = inconclusive; / = not tested or not shown; [ ] = another dose, or the depositor's remark. Random draw from the library. Share with any hit: about 1.4%.
SMILES,D2 agonist,gsp agonist,Six1-Eya2 inh,CtBP-E1A inh,gsp antagonist,D2 PAM
CC1=C(C(=O)N2CCc3ccccc32)C2(CCC(C)CC2)OC1=O (centres undefined),0.5,5%,-1,-8,-20%,-6
Cc1c(C(=O)NCC2CC2)sc(=O)n1Cc1cccc(F)c1,3.7,/,1,-6,/,-3
C#CCOCCOCCOCCNc1nc(N2CCN(C(=O)[C@H](C(C)C)n3cc(CCO)nn3)CC2)nc(N2CCN(C(=O)[C@H](CCCCN)n3cc(CCCC)nn3)CC2)n1,-0.2,-11%,0,4,11%,-2
CCc1ccc(NC(=O)c2ccccc2SC)cc1,-1.4,-73%[inhibitor],6,1,5%,-1
Cn1c(=O)c2[nH]c(N/N=C(/C#N)C(N)=O)nc2n(C)c1=O,-1.4,53%[15.4 µM],-10,-11,-8%,-6
Cn1ccc2c(-c3ccc(F)cc3F)cc3c(c21)C1CCC3C1 (centres undefined),-6.9,/,-13,-12,/,-3
COc1ccc(CNC(=O)N[C@H](C(=O)O)C(C)C)cc1OC,-1.6,-6%,-3,0,3%,-5
N=c1sccn1CC(=O)Nc1cccc2ccccc12,0.4,?,14,-7,-7%,-36
CC(C)CC(=O)Nc1cc2c3c(c1)C(C)C(=O)N3CCC2 (centres undefined),5.1,-3%,0,/,5%,-4
O=[N+]([O-])/C(C(Cl)=C(Cl)Cl)=C(\Sc1ccccc1)N1CCCCC1,-7.1,-29%,5,/,1%,-8
Cc1ccc(C)c(NC(=O)C2=CCN(S(=O)(=O)c3ccc(F)cc3)CC2)c1,-0.1,?,3,4,14%,-8
Cc1nn(Cc2c(F)c(F)c(F)c(F)c2F)c(C)c1NC(=O)c1ccnn1C,-1.7,-15%,2,0,3%,-6
O=C(c1ccc(OC2CCN(CCc3ccccc3)CC2)cc1)N1CCC[C@H]1CO,-0.1,0%,0,51,21%,-27
CCCCOc1ccc(/C=C/C(=O)NCCc2nc3ccccc3[nH]2)cc1,2.5,-40%[inhibitor],-4,-4,-24%,5
CCN(CC)S(=O)(=O)c1ccc(-c2nnc(SCc3nnc(-c4ccc(C)cc4)o3)o2)cc1,-1.9,4%,1,16,-3%,-5
Cc1cc2c(ncn2C)c(NS(=O)(=O)c2ccc(F)cc2)c1C,-1.5,-1%,1,3,6%,-8
N#CCSc1nnc(COc2cccc3ccccc23)n1-c1cccc(Cl)c1,0.0,-5%,-6,8,-10%,0
Cc1ccc(C(=O)NCC(=O)NCC(=O)OCc2ccc(F)cc2)cc1,-15,3%[15.4 µM],4,10,-7%,-5
O=C(O)Cc1ccc2c(c1)N(S(=O)(=O)c1cccs1)CC(C(=O)O)O2 (centres undefined),-5.1,?,-1,3,4%,-8
CCc1ccccc1NC(=O)CNC(=O)c1n[nH]c(=O)c2ccccc12,-4.9,-4%,-1,2,5%,-6
COc1ccc(-c2sc3ccccc3c2-c2ccc(O)cc2)cc1,-2.2,/,-4,-3,-17%,-11
Cn1c(=O)c([N+](=O)[O-])c(Oc2ccccc2)c2ccccc21,-1.5,2%[15.4 µM],2,-1,-11%,-1
COc1cccc(C2CC(=O)Nc3c2c(=O)n(C)c(=O)n3C)c1OC (centres undefined),-2.3,2%,-3,-10,-1%,-7
CN(C)S(=O)(=O)Oc1ccsc1C(=O)Nc1cccc(Cl)c1Cl,-2.3,-29%,14,20,?,-7
COc1ccc(Nc2nnc(C)c(=O)[nH]2)cc1,2.0,?,5,9,-1%,-1
O=C(COC(=O)CNC(=O)c1ccc([N+](=O)[O-])o1)Nc1ncc(C(F)(F)F)cc1Cl,0.1,?,4,/,-6%,0
CN(C)c1ccc(NC(=O)CCN2C(=O)c3cccc([N+](=O)[O-])c3C2=O)cc1,8.8,-28%,-6,4,-29%,2
COc1cc(C(=O)O)ccc1OC(C)=O,-1.6,-1%,3,14,0%,2
COc1ccc(-c2[nH]c(-c3ccc(Cl)cc3)nc2SCC(=O)Nc2nccs2)cc1,3.0,-48%[inhibitor],-4,-4,-6%,-10
CC(C)N=C(NS(=O)(=O)c1ccc(Br)cc1)c1ccc(Cl)cc1,-0.4,-11%,2,-2,4%,-13
CCOc1ccc(N(CC(=O)NC2CCCC2)S(=O)(=O)c2c(C)noc2C)cc1,-2.5,-4%,-2,4,-1%,-7
C=CCN1C(=O)/C(=N/n2cnnc2)c2ccccc21,-9.9,-29%,5,-1,7%,-34
C/C(=N/NC(=O)c1ccc(Br)o1)c1cccs1,-3.9,14%,2,-1,9%,-11
CC(=O)Oc1cc2c(C(=O)NCCN3CCOCC3)c(C)oc2c2ccccc12,2.4,12%,-6,-5,1%,17
O=C(COC(=O)c1ccc2c(c1)OCO2)Nc1ccccc1F,-1.4,7%,4,/,7%,7
CC12CCC(C(=O)Nc3nc4ccc(Br)cc4s3)(OC1=O)C2(C)C (centres undefined),-1.1,-19%,2,9,-5%,2

# Sorted by molecular weight (lowest first): some entries from above
SMILES,D2 agonist,gsp agonist,Six1-Eya2 inh,CtBP-E1A inh,gsp antagonist,D2 PAM
COc1cc(C(=O)O)ccc1OC(C)=O,-1.6,-1%,3,14,0%,2
COc1ccc(Nc2nnc(C)c(=O)[nH]2)cc1,2.0,?,5,9,-1%,-1
C=CCN1C(=O)/C(=N/n2cnnc2)c2ccccc21,-9.9,-29%,5,-1,7%,-34
Cn1c(=O)c([N+](=O)[O-])c(Oc2ccccc2)c2ccccc21,-1.5,2%[15.4 µM],2,-1,-11%,-1
C/C(=N/NC(=O)c1ccc(Br)o1)c1cccs1,-3.9,14%,2,-1,9%,-11
O=C(COC(=O)c1ccc2c(c1)OCO2)Nc1ccccc1F,-1.4,7%,4,/,7%,7
COc1cccc(C2CC(=O)Nc3c2c(=O)n(C)c(=O)n3C)c1OC (centres undefined),-2.3,2%,-3,-10,-1%,-7
CCc1ccccc1NC(=O)CNC(=O)c1n[nH]c(=O)c2ccccc12,-4.9,-4%,-1,2,5%,-6
CN(C)c1ccc(NC(=O)CCN2C(=O)c3cccc([N+](=O)[O-])c3C2=O)cc1,8.8,-28%,-6,4,-29%,2
O=C(O)Cc1ccc2c(c1)N(S(=O)(=O)c1cccs1)CC(C(=O)O)O2 (centres undefined),-5.1,?,-1,3,4%,-8
CN(C)S(=O)(=O)Oc1ccsc1C(=O)Nc1cccc(Cl)c1Cl,-2.3,-29%,14,20,?,-7
CC(=O)Oc1cc2c(C(=O)NCCN3CCOCC3)c(C)oc2c2ccccc12,2.4,12%,-6,-5,1%,17
N#CCSc1nnc(COc2cccc3ccccc23)n1-c1cccc(Cl)c1,0.0,-5%,-6,8,-10%,0
CC(C)N=C(NS(=O)(=O)c1ccc(Br)cc1)c1ccc(Cl)cc1,-0.4,-11%,2,-2,4%,-13
CCOc1ccc(N(CC(=O)NC2CCCC2)S(=O)(=O)c2c(C)noc2C)cc1,-2.5,-4%,-2,4,-1%,-7
O=C(COC(=O)CNC(=O)c1ccc([N+](=O)[O-])o1)Nc1ncc(C(F)(F)F)cc1Cl,0.1,?,4,/,-6%,0
COc1ccc(-c2[nH]c(-c3ccc(Cl)cc3)nc2SCC(=O)Nc2nccs2)cc1,3.0,-48%[inhibitor],-4,-4,-6%,-10

# Next part.
SMILES,D2 agonist,gsp agonist,Six1-Eya2 inh,CtBP-E1A inh,gsp antagonist,D2 PAM
O=C(Nc1nccs1)C1CCN(S(=O)(=O)c2cccs2)CC1,0.5,3%[15.4 µM],-2,6,0%,-25
Cc1ccccc1NC(=O)Cn1cccc1,-2.0,7%,-1,1,9%,-4
O=C(OCc1ccccc1)N1CCc2ccccc21,5.9,10%[15.4 µM],42,51,0%,-3
Cc1c(NC(=O)/C=C/C(=O)O)cccc1[N+](=O)[O-],-4.4,-1%,1,3,7%,-7
Cn1nc(C(C)(C)C)c(NC(=O)c2ccc(F)cc2)c1C(C)(C)C,-5.9,2%[15.4 µM],-4,-20,8%,-4
CC(=O)Nc1ccc(S(=O)(=O)NCCC(=O)OCC(=O)c2cc(C)ccc2C)cc1,-4.4,-33%[inhibitor],-1,3,-6%,-1
O=C(O)/C=C/C(=O)Nc1ccc(-c2ccccc2)cc1,-1.5,-56%[inhibitor],0,-9,3%,-4
COc1cccc(/C=N/NC(=O)c2ccc(-c3ccccc3)cc2)c1O,-5.2,?,7,-4,-11%,-22
COC(=O)c1cccc2c1-c1ccccc1/C2=N\NC(N)=O,0.7,21%,0,/,4%,-19
C/C(=N\NC(=O)c1csc2ccccc12)c1ccc(O)cc1,-0.2,5%,6,2,-1%,-21
CC(C)CCn1c(N2CCc3ccccc3C2)nc2c1c(=O)[nH]c(=O)n2C,-5.2,-10%,5,2,-1%,-2
CCCCN1C(=O)C(O)=C(C(C)=O)C1c1ccccc1 (centres undefined),-0.5,?,3,7,2%,9
Nc1nnc(SCCOc2ccc(Br)cc2)s1,1.0,2%,0,3,0%,-7
CCOc1ccc(NC(=O)CCNS(=O)(=O)c2ccc3c(c2)c(=O)n(C)c(=O)n3C)cc1,-0.6,-6%,-2,-7,6%,-1
CCC(C)c1ccc(O)c(NC(=S)NC(=O)c2cccnc2)c1 (centres undefined),-14,-5%,-5,-16,0%,-30
c1ccc(-c2nn3c(C4CCCCC4)nnc3s2)cc1,1.5,13%,-3,1,10%,18
CCCC(C)NC(=O)c1cccc(Oc2ccccc2)c1 (centres undefined),-1.2,-4%[15.4 µM],12,26,/,5
Cc1ccc(/C=C2\SC(=S)N(CCCC(=O)Nc3cccnc3)C2=O)cc1,-2.0,-7%,0,0,?,-9
Cc1ccc(-c2nc(CS(=O)(=O)CC(=O)NCCCN3CCOCC3)c(C)o2)cc1,-2.2,?,4,4,9%,-14
CCN(CC(=O)Nc1ccc2c(c1)OCCO2)C(=O)CCOc1ccccc1,-10,24%,-2,-16,1%,-3

# Screens from PubChem BioAssay.
